Compound activity as filed in PubChem.
Rce1 inh: blocks yeast Ras-converting enzyme. Q03530. yeast membranes, quenched prenylated peptide cleavage fluorescence. calls only. actives 0.27% (n = 290,000). AID 2563;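 active means fall in fluorescence gain of 50% or more versus controls, with final raw signal at or below 3038400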;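 further: plate controls were neutral control wells for no effect and wells lacking membranes for full effect; tested at 10 µM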
Target sequence (Q03530 whole entry, looked up): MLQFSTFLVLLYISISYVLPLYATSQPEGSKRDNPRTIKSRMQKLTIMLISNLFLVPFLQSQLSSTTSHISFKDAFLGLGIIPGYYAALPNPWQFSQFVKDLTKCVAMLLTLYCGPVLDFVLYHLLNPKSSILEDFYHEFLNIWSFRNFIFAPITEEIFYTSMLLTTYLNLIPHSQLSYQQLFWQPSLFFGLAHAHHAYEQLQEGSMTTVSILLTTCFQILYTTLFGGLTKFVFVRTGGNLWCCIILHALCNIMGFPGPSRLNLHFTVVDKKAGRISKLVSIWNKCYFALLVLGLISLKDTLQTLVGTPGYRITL
CSC inhib: cancer stem cell inhibition. cancer stem cell-like cells viability, luminescence. inhibition, % at 7.5 µM. actives 1.1% (n = 300,000);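 active means mean at 75% or more and at least half the replicates too; tested in HMLE shEcad cells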;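 further: 0% = median of negative and 100% = median of positive control wells; the first replicate is given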
MT1-MMP act inh: MT1-MMP (human) activation inhibition. HT1080 RFP-PRO-GFP cells, GFP/RFP ratio fluorescence, overnight; percent of plate control window, DMSO zero. P50281. GFP/RFP ratio change, % at 20 µM. actives 0.061% (n = 360,000);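 active means GFP/RFP ratio change of at least 30% with cell ATP level not reduced by more than half and red fluorescence within 50% of control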; further: strong numbers were not always called active
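Assay system – RFP-PRO-GFP reporter HT1080 cells · Compound dosing – single dose of 20 µM compound, 1% DMSO final · Incubation – overnight compound exposure at 37 °C · Measure – GFP/RFP fluorescence ratio · Benchmarks – DMSO wells and RFP-L50D-GFP cells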
PABP FP inh: blocks human PABP binding to poly(A) RNA; P11940; fluorescence polarization; inhibition, % at 35 µM; actives 1% (n = 290,000); AID 2014;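 active means 50% or more with normal probe brightness, or confirmed in later tests; about a fifth of its hits are not listed in these tables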;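 further: calls also rest on retests at 20 µM and on dose response follow-up; controls were probe without protein and protein plus probe with vehicle; some compounds called inactive have numbers as strong as hits; many hits fall short of the cut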
Target sequence (P11940 whole entry, looked up): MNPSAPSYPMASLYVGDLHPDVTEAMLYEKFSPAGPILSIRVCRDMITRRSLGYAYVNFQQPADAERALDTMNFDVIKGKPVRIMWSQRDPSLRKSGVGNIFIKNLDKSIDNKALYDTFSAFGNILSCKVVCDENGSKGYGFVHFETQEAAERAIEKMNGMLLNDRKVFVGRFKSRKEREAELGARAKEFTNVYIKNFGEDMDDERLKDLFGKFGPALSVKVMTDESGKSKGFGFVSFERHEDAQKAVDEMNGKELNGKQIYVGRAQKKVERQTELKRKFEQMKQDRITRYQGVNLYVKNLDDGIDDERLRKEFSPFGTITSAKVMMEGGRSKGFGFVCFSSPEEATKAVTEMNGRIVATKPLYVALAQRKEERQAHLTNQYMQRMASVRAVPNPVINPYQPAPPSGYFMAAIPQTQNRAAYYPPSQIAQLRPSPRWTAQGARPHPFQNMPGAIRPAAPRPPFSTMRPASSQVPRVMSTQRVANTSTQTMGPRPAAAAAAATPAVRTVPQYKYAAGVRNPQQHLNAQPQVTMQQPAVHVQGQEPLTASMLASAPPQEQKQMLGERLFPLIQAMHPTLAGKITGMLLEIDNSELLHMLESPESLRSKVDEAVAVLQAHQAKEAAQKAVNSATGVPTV
eIF4H FP inh: inhibitors of RNA binding by human eIF4H; actives 0.94% (n = 290,000); Q15056; eIF4H fluorescence polarization binding assay; inhibition, % at 35 µM;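 active means 50% or more with normal probe brightness, or confirmed in later tests; about a fifth of its hits are not listed in these tables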;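 further: calls also rest on retests at 20 µM and on dose response follow-up; 0% = protein and probe with vehicle and 100% = probe without protein; strong numbers were not always called active; many hits fall short of the cut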
UUG fidelity: alters start codon recognition fidelity in yeast. S. cerevisiae UUG-firefly luciferase reporter, luminescence/redox ratio. activity score, % at 18.7 µM. actives 0.13% (n = 350,000);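 active means replicate mean at a twofold rise or more, about +100% in these data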;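 further: firefly luciferase made from a UUG start codon reports start codon fidelity; reporter light over untreated wells divided by growth signal over untreated wells; some hits fall short of that in this replicate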
Env fusion inh: blocks HIV Env-driven cell-cell fusion | inhibition, % at 12.3 µM | actives 1.1% (n = 360,000) | HeLa-JRFL Env/CEM21 cell fusion, luciferase;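 active means mean replicate inhibition score of at least 50 and every replicate individually at or above 50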;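 further: 0% = plate neutral controls and 100% = maraviroc near 300 nM; one replicate is shown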
MT1-MMP act inh RFP: also measured in MT1-MMP act inh; calls as there; RFP signal change, %; measured here: RFP expression control read;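 0 = vehicle wells; hits needed this value within 50% of zero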
* hit, by the source's call; i = inactive; x = not tested or not shown; & = joins results of further samples; [ ] = remark or other dose.

SMILES	Rce1 inh	CSC inhib	MT1-MMP act inh	MT1-MMP act inh RFP	PABP FP inh	eIF4H FP inh	UUG fidelity	Env fusion inh
O=C1C(CCCNC(=S)NCc2ccccc2)NC(=S)N1Cc1ccccc1 (stereo not given)	i	1	1	-1	-2	-2	-17	40
CCn1nc(C)c(CNC(=O)C2CCC(=O)N(CCc3ccc(OC)cc3)C2)c1C (stereo not given)	i	7	4	10	10	-2	-7	-5
COc1cccc(NC(=O)COC(=O)c2sccc2C)c1	x	-16	0	0	x	x	-8	-94
COc1ccc(-c2noc(CCC(=O)Nc3cccc(C(=O)NC4CC4)c3)n2)cc1OC	x	x	6	14	x	x	-24	4
Cc1ccccc1C(=O)NC1CCCN(Cc2ccccc2F)C1 (stereo not given)	i	-10	2	-4	7	-2	-22	-91
CC1Cc2cc(S(=O)(=O)N3CCC(C(=O)N(C)Cc4ccco4)CC3)ccc2N1C(=O)C1CCC1 (stereo not given)	i	-4	-3	-4	-3	-9	-4	0
O=C(c1cccc(NS(=O)(=O)c2ccccc2)c1)N1CCCCC1	i	-2	-4	1	x	x	1	x
O=C(CN1C(=O)NC2(CCc3ccccc3C2)C1=O)Nc1ccc(F)cc1 (stereo not given)	i	-8	0	-2	-5	-5	-23	0
O=C(CNc1ccc(F)cc1)N/N=C1\CCCc2ccccc21	i	19	3	3	11	1	x	-9
CCOc1ccc(CCNC(=O)c2cnccn2)cc1OCC	i	-4	7	4	7	-10	-9	-7
CCOC(=O)C(NC(=O)c1ccccc1)(OCC1(CC)COC1)C(F)(F)F (stereo not given)	i	-2	0	0	5	6	3	-57
Cc1ccccc1COc1ccc(/C(O)=C2/C(=O)C(=O)N(CCCn3ccnc3)C2c2ccco2)cc1 (stereo not given)	i	-6	5	10	4	7	-28	-60
Cc1noc(C)c1C(=O)Nc1sc(C)c(-c2ccccc2)c1C#N	i	x	-6	-22	5	4	-7	15
COCCNC(=O)c1ccc(N2CC3CC(C2)c2cccc(=O)n2C3)c(NC(=O)c2ccccc2Cl)c1 (stereo not given)	x	x	-1	6	x	x	-7	-22
C#CCOCCOCCOCCNc1nc(N2CCN(C(=O)[C@H](CCCCN)n3cc(C(N)CO)nn3)CC2)nc(N2CCN(C(=O)[C@H](CCC(=O)O)n3cc(C(N)[C@H](C)CC)nn3)CC2)n1 (stereo not given in full)	i	-14	x	x	27	38	x	x
CCOC(=O)N1CCC(O)(c2cc(C)c(C)cc2C)CC1	i	-9	10	-2	0	-3	x	12
CCOC(=O)c1ccc(CNC(=O)CSc2nc(NC(=O)c3ccccc3)c3c(C)c(C)oc3n2)cc1	i	-7	4	-5	-11	-18	12	13
CCc1nnc(NC(=O)CN2CCC(O)(c3ccccc3OC)CC2)s1	i	-21	-2	-2	1	-1	-20	-30
COc1ccc(-n2c(Cc3cccs3)nnc2SCC(=O)Nc2ccc3c(c2)OCCO3)cc1	i	3	-2	-2	4	-1	-17	17
O=C(O)CCc1ccc(S(=O)(=O)N2CCOCC2)cc1	i	-11	2	4	9	-2	-9	3
CC(=O)NC(Cc1cccc(F)c1)C(=O)NC1CCN(C(=O)c2cccc(C)c2)CC1 (stereo not given)	i	-18	-1	3	-2	4	x	9
CCCCC(=O)NC(Nc1sc2c(c1C(N)=O)CCCC2)(C(=O)OCC)C(F)(F)F (stereo not given)	i	-10	0	0	20	9	-6	5
CCc1cccc2[nH]c3cc([N+](=O)[O-])ccc3c12	i	10	-3	1	46	48	-5	40
O=C(COC(=O)C1(c2ccc(F)cc2)CCCC1)Nc1ncc(C(F)(F)F)cc1Cl	i	5	-2	-1	-2	10	x	x
C[C@@H]1CN([C@@H](C)CO)C(=O)c2cc(C#Cc3cccc(F)c3)cnc2O[C@@H]1CN(C)CC1CCOCC1	x	x	-3	2	x	x	7&-3	-10[16.7 µM]
CC1=NNC(=O)C1CCC(=O)N/N=C/C(Br)=C/c1ccccc1 (stereo not given)	i	21	4	1	42	2	x	19
CC(=O)c1c(C)nc(-c2ccc(Cl)cc2)nc1NC(=O)C(C)C	i	6	5	-1	1	-2	-4	-27
COc1ccc(/C=C/C(=O)Nc2cccc(S(=O)(=O)N3CCCC3)c2)cc1OC	i	8	5	-12	-1	6	-18	26
Cc1c(C(=O)Oc2ccc(-c3cnc4ccccc4n3)cc2)cccc1[N+](=O)[O-]	i	20	0	-2	-9	-2	-16	x
Cc1ccccc1C(=O)Nc1ccc2nc3n(c(=O)c2c1)CCC3	i	16	6	4	5	-11	-17	-18
O=C(NC1CCCCC1)C(c1ccccc1)N1CCC2(CC1)OCCO2 (stereo not given)	i	-18	-2	4	-6	4	-11	-68
O=C(Nc1ccccc1N1CCCCC1)c1cccc(OC(F)F)c1	i	27	-1	-3	-3	-15	21	22
Cc1cc(C(=O)CCC(=O)NCC(=O)Nc2c(C)cccc2C)c(C)s1	x	3	-4	0	x	x	-14	x
COc1ccc(-c2nc3cc(NC(=O)c4ccc5c(c4)OCO5)ccc3o2)cc1	i	-6	0	1	4	10	-16	i
O=C(Nc1nccs1)c1ccc(Cl)c(S(=O)(=O)N2CCCCC2)c1	i	-1	-3	-19	-3	-4	-10	x
N#CC1=C(N)SC(N)=C(C#N)C1c1cccc(Oc2ccccc2)c1	i	x	-295	-10	12	28	x	x
N#CC1=C(N)C(C#N)(C#N)C(c2cccnc2)C2COCC=C12 (stereo not given)	i	2	-10	1	x	x	10	5
CCc1ccc2[nH]c(C)c(CN3CCCCCC3)c(=O)c2c1	i	-11	-2	1	11	2	-18	-12
O=C(c1cccnc1)N1CCCC(Nc2ccc(F)cc2)C1 (stereo not given)	i	-3	-5	-2	4	-7	-23	3
Cc1cc(C)c(NC(=O)CN(C)CC(=O)Nc2cccc(S(=O)(=O)N(C)c3ccccc3)c2)c(C)c1	x	25	5	-16	x	x	14	x
Cc1ccsc1/C=N/NC(=O)c1nnn(-c2nonc2N)c1C	x	-4	1	-3	-9	1	5	-14
COc1ccc(CN2[C@@H](CC(=O)O)c3ccccc3S2(=O)=O)cc1	i	-19	4	1	x	x	2	5
O=C(NCCO)C(=O)NCC(c1ccc2c(c1)OCO2)N1CCN(c2ccc(F)cc2)CC1 (stereo not given)	i	6	4	6	-10	-6	-11	-1
CCN(CC)c1ccc(S(=O)(=O)N2CCOCC2)cc1NC(=O)CN1C(=O)NC2(CCCC2)C1=O	i	-9	-3	0	6	5	11	x
COc1cccc2cc(C(=O)NCc3ccc(Cl)cc3)c(=N)oc12	i	1	-5	0	-1	5	-7	1
CCc1cc(C(=O)OC)c(NC(=O)CC2SC(=NC)N(C)C2=O)s1 (stereo not given)	i	-5	-5	4	-1	-4	x	13
CCN1CCN(C(=S)Nc2ccc([N+](=O)[O-])cc2)CC1	i	-4	9	0	-6	4	-23	20
Cc1ccc(S(=O)(=O)N2CCCC2)cc1C(=O)O	i	-4	-2	-7	16	-1	-10	-38
Cn1nnc2cc(C(=O)N3CCC(c4ccccc4)C3)ccc21 (stereo not given)	i	x	-1	-1	2	-4	2	-3
Nc1nnnn1/N=C/c1ccccn1	i	-10	-2	3	9	-2	-4	x

Five of the compounds above, with two lines to a compound:
Each structure is followed by: Rce1 inh | CSC inhib | MT1-MMP act inh | MT1-MMP act inh RFP | PABP FP inh | eIF4H FP inh | UUG fidelity | Env fusion inh
Cc1ccsc1/C=N/NC(=O)c1nnn(-c2nonc2N)c1C
  x | -4 | 1 | -3 | -9 | 1 | 5 | -14
Nc1nnnn1/N=C/c1ccccn1
  i | -10 | -2 | 3 | 9 | -2 | -4 | x
CCN1CCN(C(=S)Nc2ccc([N+](=O)[O-])cc2)CC1
  i | -4 | 9 | 0 | -6 | 4 | -23 | 20
Cc1ccc(S(=O)(=O)N2CCCC2)cc1C(=O)O
  i | -4 | -2 | -7 | 16 | -1 | -10 | -38
O=C(NCCO)C(=O)NCC(c1ccc2c(c1)OCO2)N1CCN(c2ccc(F)cc2)CC1 (stereo not given)
  i | 6 | 4 | 6 | -10 | -6 | -11 | -1

(more compounds)
SMILES	Rce1 inh	CSC inhib	MT1-MMP act inh	MT1-MMP act inh RFP	PABP FP inh	eIF4H FP inh	UUG fidelity	Env fusion inh
COc1ccc(OCC(=O)NC(=S)Nc2ccccc2F)cc1	i	2	1	6	1	4	x	20
CCC1(C)SC(N)=NN1C(C)=O (stereo not given)	i	2	-3	1	4	-6	x	-7
COc1ccc(NC(=O)c2ccc(-c3nn(C)c(=O)c4ccccc34)cc2)cc1C(N)=O	i	-8	1	1	0	-1	-22	-4
c1ccc(C(c2ccccn2)c2ccccn2)cc1	i	-9	4	3	-7	-8	x	-1
COc1cccc(CNC(=O)C(CC(C)C)NC(=O)c2ccccc2C)c1 (stereo not given)	i	-7	-2	0	-3	2	-2	0
COc1ccccc1OCC(=O)Nc1ccc2c(c1)C(=O)N(CC1CCCO1)C2=O (stereo not given)	i	-4	-5	-3	11	-3	x	4
O=C(CC1C[C@H](C(=O)N2CCOCC2)[C@@]2(CCC3CCCC3)c3[nH]c4ccccc4c3CCN2C1=O)NCCC1=CCCCC1 (stereo not given in full)	x	x	-7	-6	x	x	-13	2
O=C(CSc1nnc(-c2cccs2)o1)Nc1cccc(S(=O)(=O)N2CCCCC2)c1	i	-14	1	-1	-2	-9	-5	-6
Cn1c(-c2sc3ccccc3c2Cl)n[nH]c1=S	i	-11	6	2	-12	-8	-25	16
CC1(c2ccccc2)NC(=O)N(N)C1=O (stereo not given)	i	x	0	0	-6	-3	x	2

Fetched by compound from the entries so far (four):
SMILES	Rce1 inh	CSC inhib	MT1-MMP act inh	MT1-MMP act inh RFP	PABP FP inh	eIF4H FP inh	UUG fidelity	Env fusion inh
COc1ccccc1OCC(=O)Nc1ccc2c(c1)C(=O)N(CC1CCCO1)C2=O (stereo not given)	i	-4	-5	-3	11	-3	x	4
Cn1c(-c2sc3ccccc3c2Cl)n[nH]c1=S	i	-11	6	2	-12	-8	-25	16
COc1ccc(NC(=O)c2ccc(-c3nn(C)c(=O)c4ccccc34)cc2)cc1C(N)=O	i	-8	1	1	0	-1	-22	-4
CCC1(C)SC(N)=NN1C(C)=O (stereo not given)	i	2	-3	1	4	-6	x	-7

Structures above that have a furan ring, fused or not:
SMILES	Rce1 inh	CSC inhib	MT1-MMP act inh	MT1-MMP act inh RFP	PABP FP inh	eIF4H FP inh	UUG fidelity	Env fusion inh
CC1Cc2cc(S(=O)(=O)N3CCC(C(=O)N(C)Cc4ccco4)CC3)ccc2N1C(=O)C1CCC1 (stereo not given)	i	-4	-3	-4	-3	-9	-4	0
Cc1ccccc1COc1ccc(/C(O)=C2/C(=O)C(=O)N(CCCn3ccnc3)C2c2ccco2)cc1 (stereo not given)	i	-6	5	10	4	7	-28	-60
CCOC(=O)c1ccc(CNC(=O)CSc2nc(NC(=O)c3ccccc3)c3c(C)c(C)oc3n2)cc1	i	-7	4	-5	-11	-18	12	13

(continued)
SMILES	Rce1 inh	CSC inhib	MT1-MMP act inh	MT1-MMP act inh RFP	PABP FP inh	eIF4H FP inh	UUG fidelity	Env fusion inh
COc1cccc(OC)c1C(=O)Nc1ccc2c(c1)OCCO2	i	x	-2	0	3	6	-8	-84
Cc1ccc(-n2nc3c(=O)n(CCCC(=O)NCC(C)c4ccccc4)nc(C)c3c2C)cc1 (stereo not given)	i	10	6	-3	x	x	-12	31
COC(=O)c1cccc(N(C(=O)c2ccco2)C(C(=O)NC2CCCC2)c2ccc(N3CCOCC3)cc2)c1 (stereo not given)	i	x	-2	0	6	1	9	8
O=C(CNC(=O)c1ccc(Br)o1)NC12CC3CC(CC(C3)C1)C2	x	-5	4	2	-18	-11	-5	4
CC(C)CC(=O)NC(c1ccccc1Cl)c1c(O)ccc2ccccc12 (stereo not given)	i	16	-26	-22	-5	1	x	18
